# Bioassay records deposited in PubChem BioAssay by Broad Institute.
# Vaccinia inh – blocks a specific stage of Vaccinia orthopoxvirus infection; Vaccinia-infected cells, mCherry/Venus stage reporter fluorescence; active compounds read low; some inactives read as strong as hits; activity change (mCherry), % (concentration not given with the values); 0.01% of 89,000 active;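 active means mCherry past -33% and 40 or more points under the early reporter, replicates agreeing; inconclusive means past -33% without that gap or agreement; tested in A549 cells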;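 further: scaled between vehicle wells and reference inhibitor wells; 23 nL library stock went into each well; one replicate is shown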
# Vaccinia inh Venus – further read-out of Vaccinia inh, marked with its call; activity change (Venus), %; measured here: Venus reporter, other viral stage;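 negative = less Venus signal; first of two replicates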
# Starred values were filed as active, the others as inactive; ? = inconclusive; . = not tested or not shown; & = joins results of further samples. Not all compounds are listed; count on the stated rates, not on these rows.
# Screens in order: Vaccinia inh | Vaccinia inh Venus
- O=C(C[C@@H]1C[C@@H]2c3cc(NC(=O)NC4CCCCC4)ccc3O[C@@H]2[C@H](CO)O1)NCc1cccnc1
  9.0 | 5.5
- COc1ccc(S(=O)(=O)Nc2ccc3c(c2)C(=O)N([C@@H](C)CO)C[C@H](C)[C@@H](CN(C)S(=O)(=O)c2cccs2)OCCCC[C@@H](C)O3)cc1
  -12.8 | -10.8
- COc1ccccc1S(=O)(=O)N[C@@H]1CC[C@@H](CC(=O)N2CCN(C)CC2)O[C@H]1CO
  0.6 | -5.0
- CO[C@H]1CN(C)C(=O)c2cc(NC(=O)CC(F)(F)F)ccc2OC[C@@H](C)N(C(C)=O)C[C@H]1C
  2.3 | 15.8
- O=C(C1CCC1)N1CCCCN2[C@H](CO)[C@H](c3ccc(C#CC4(O)CCCC4)cc3)[C@@H]2C1
  -3.4 | -16.6
- COc1ccc(S(=O)(=O)N2C[C@@H](O)COC[C@@H]3O[C@@H](CC(=O)NCCCN4CCOCC4)CC[C@H]32)cc1
  9.1 | 8.8
- C[C@H](CO)N1C[C@H](C)[C@H](CN(C)Cc2ccc(C(=O)O)cc2)Oc2c(NC(=O)Nc3ccccc3)cccc2C1=O
  11.4 | 6.3
- CC=Cc1ccc2n(c1=O)C[C@@H]1[C@@H](CO)[C@H](C(=O)NCCC)[C@H]2N1Cc1ccccc1 (mixture of isomers)
  8.1 | 14.1
- CO[C@H]1CN(C)C(=O)c2cc(C#N)ccc2OCC[C@H]2CC[C@@H](OC)[C@@H](CN(C)C(=O)[C@@H]1C)O2
  7.8 | 3.5
- COc1ccc(CN(C)C[C@H]2Oc3c(NS(=O)(=O)c4ccc(OC)cc4)cccc3C(=O)N([C@H](C)CO)C[C@H]2C)cc1
  19.9 | 18.0
- Cc1noc(C)c1NC(=O)N(C)C[C@H]1Oc2ccc(NC(=O)CCCN(C)C)cc2C(=O)N([C@@H](C)CO)C[C@H]1C
  19.1 | 7.0
- C[C@@H]1CN([C@H](C)CO)S(=O)(=O)c2ccc(C#CC3(O)CCCC3)cc2O[C@H]1CN(C)C(=O)Cc1ccccc1
  -11.0 | -13.0
- C[C@H](CO)N1C[C@H](C)[C@H](CN(C)Cc2ccccc2)OCCCC[C@H](C)Oc2ccc(NC(=O)C3CCCCC3)cc2C1=O
  -22.9 | -25.2
- COc1ccc2c3c(n(C)c2c1)[C@@H](CO)N(C(C)=O)CC31CCN(S(=O)(=O)c2ccccc2)CC1
  ? | .
- C[C@@H]1CN([C@@H](C)CO)S(=O)(=O)c2ccc(/C=C/c3ccccc3)cc2O[C@@H]1CN(C)C(=O)NC1CCCCC1
  -34.2 | -24.5
- CO[C@@H]1CN(C)C(=O)c2cc(NC(=O)Nc3c(C)noc3C)ccc2OC[C@@H](C)N(CC2CC2)C[C@@H]1C
  8.9 | -0.4
- COc1cccc(NC(=O)C[C@H]2CC[C@@H]3[C@H](COc4ccc(NC(=O)c5ccccc5F)cc4C(=O)N3C)O2)c1
  -33.9 | -25.5
- O=C(c1ccccn1)N1CC(=O)N2[C@H](CO)[C@H](c3ccc(-c4cccc(F)c4)cc3)[C@@H]2C1
  25.7 | 6.4
- N#Cc1ccc(-c2ccc3c(c2)[C@H]2[C@H](CCN2C(=O)c2ccc4c(c2)OCO4)[C@H](CO)N3)cc1
  -18.3 | -4.4
- O=C(Nc1ccccc1Cl)N1[C@@H]2CNC[C@H]1C2c1ccc(/C=C/c2ccccc2)cc1 (stereo partly specified)
  2.7&-5.6 | 13.6&-7.1
- Cc1noc(C)c1NC(=O)Nc1ccc2c(c1)C(=O)N([C@@H](C)CO)C[C@H](C)[C@H](CN(C)Cc1ccc(C(=O)O)cc1)O2
  13.2 | 4.0
- Cc1noc(C)c1S(=O)(=O)N(C)C[C@H]1OCCCC[C@H](C)Oc2ccc(NC(=O)Nc3cccc4ccccc34)cc2C(=O)N([C@@H](C)CO)C[C@@H]1C
  -3.4 | 0.8
- CCC(=O)N1C[C@H](O)COC[C@H]2O[C@@H](CC(=O)NC)CC[C@@H]21
  8.4 | 6.8
- COCC#Cc1cnc2c(c1)C(=O)N([C@@H](C)CO)C[C@@H](C)[C@@H](CN(C)C(=O)c1ccc(F)cc1)O2
  -1.9 | 0.2
- CCCNC(=O)N1C[C@H](O)COC[C@H]2O[C@@H](CC(=O)NCc3ccncn3)CC[C@@H]21
  31.8 | 28.8
- C/C=C/c1ccc2c(c1)O[C@H](CN(C)C(=O)c1cnccn1)[C@@H](C)CN([C@H](C)CO)S2(=O)=O
  5.1 | 8.3
- CC(C)CC#Cc1cnc2c(c1)C(=O)N([C@@H](C)CO)C[C@H](C)[C@@H](CN(C)C(=O)NC1CCCC1)O2
  -7.8 | -9.3
- COc1ccc(S(=O)(=O)Nc2ccc3c(c2)C(=O)N([C@@H](C)CO)C[C@H](C)[C@H](CN(C)Cc2ccc(C(F)(F)F)cc2)OCCCC[C@@H](C)O3)cc1
  ? | .
- C[C@H]1CN([C@@H](C)CO)C(=O)c2cc(NC(=O)C3CCCCC3)ccc2O[C@H]1CN(C)Cc1ccc(-c2ccccc2)cc1
  13.0 | 5.4
- COc1ccc(S(=O)(=O)Nc2ccc3c(c2)CC(=O)N([C@@H](C)CO)C[C@@H](C)[C@H](CN(C)C(=O)Nc2ccc(C(F)(F)F)cc2)O3)cc1
  -13.9 | 6.2
- O=C(c1ccc2c(c1)OCO2)N1CCCCN2[C@H](CO)[C@H](c3ccc(-c4ccccc4)cc3)[C@H]2C1
  ? | .
- C[C@H](CO)N1C[C@H](C)[C@@H](CN(C)S(C)(=O)=O)Oc2ncc(/C=C/c3ccccc3)cc2C1=O
  12.9 | 9.3
- CC=Cc1ccc2n(c1=O)C[C@@H]1[C@@H](CO)[C@H](C(=O)N(C)C)N(CC3CC3)[C@H]21 (mixture of isomers)
  9.2 | 4.8
- CCCN(C)C[C@H]1OCCCC[C@H](C)Oc2ccc(NC(=O)NC3CCCCC3)cc2C(=O)N([C@@H](C)CO)C[C@H]1C
  -5.2 | 0.7
- O=S(=O)(c1ccc(F)cc1)N1CC[C@@H]2[C@H]1c1cc(C#CC3CCCCC3)ccc1N[C@@H]2CO
  2.4 | 11.2
- Cc1nc(S(=O)(=O)N[C@@H]2CCCN(Cc3cccc(OCCO)c3)C2)cn1C
  -9.9 | -4.4
- Cc1noc(C)c1S(=O)(=O)N(C)C[C@H]1OCCCC[C@@H](C)Oc2ccc(NC(=O)Nc3ccc(C(F)(F)F)cc3)cc2C(=O)N([C@@H](C)CO)C[C@H]1C
  17.4 | 14.7
- Cc1noc(C)c1NC(=O)Nc1ccc2c(c1)C(=O)N([C@H](C)CO)C[C@@H](C)[C@@H](CN(C)S(=O)(=O)c1c(C)noc1C)O2
  7.1 | 4.0
- COc1ccc(NC(=O)N(C)C[C@@H]2Oc3ccc(NC(=O)Nc4ccccc4)cc3CC(=O)N([C@@H](C)CO)C[C@H]2C)cc1
  16.2 | 21.0
- C[C@H]1CN([C@@H](C)CO)C(=O)c2cc(-c3ccccc3)cnc2O[C@@H]1CN(C)C(=O)Nc1ccc2c(c1)OCO2
  -17.1 | -11.7
- O=C([C@@H]1[C@@H](CO)[C@@H]2Cn3c(cccc3=O)[C@H]1N2CC1CCCCC1)N1CCOCC1
  3.7 | -10.5
- C/C=C/c1ccc2c(c1)[C@H]1[C@H](CCN1C(=O)C1CCCC1)[C@@H](CO)N2
  -1.1 | -2.6
- O=C(Nc1ccc(Cl)cc1)N[C@@H]1CC[C@H](CCn2cc(Cc3ccccc3)nn2)O[C@@H]1CO
  12.5 | 4.0
- N#C[C@H]1[C@@H](c2ccc(/C=C/c3ccccc3)cc2)[C@@H](CO)N1C(=O)C1CC1
  9.9 | 14.3
- Cc1ccc(S(=O)(=O)N[C@@H]2CC[C@H](CCn3cc(-c4cccnc4)nn3)O[C@H]2CO)cc1
  -4.4 | -4.4
- CNC[C@H]1OCCCC[C@@H](C)Oc2ccc(NC(=O)Nc3c(C)noc3C)cc2C(=O)N([C@@H](C)CO)C[C@H]1C
  -0.5 | 0.7
- CC=Cc1ccc2n(c1=O)C[C@@H]1[C@@H](CO)[C@H](C(=O)NCC)[C@H]2N1C(C)=O (mixture of isomers)
  0.5 | -1.8
- CS(=O)(=O)Nc1ccc2c(c1)[C@@H]1C[C@H](CC(=O)NCC3CC3)O[C@@H](CO)[C@@H]1O2
  9.7 | 5.9
- COc1ccc(CN(C)C[C@@H]2Oc3c(NC(=O)NC4CCCCC4)cccc3C(=O)N([C@H](C)CO)C[C@H]2C)cc1
  -20.8 | -9.0
- COc1ccc(S(=O)(=O)Nc2ccc3c(c2)C(=O)N([C@H](C)CO)C[C@@H](C)[C@@H](CN(C)S(=O)(=O)c2ccc(OC)cc2)O3)cc1
  -11.4 | 4.2
- COc1ccc(-c2ccccc2[C@@H]2[C@@H](C#N)N(C(=O)NC3CCCCC3)[C@H]2CO)cc1
  -14.9 | -3.7
- CC(=O)N(C)C[C@@H]1Oc2ncc(-c3cncnc3)cc2C(=O)N([C@H](C)CO)C[C@H]1C
  22.4 | 21.9
- CC(=O)N(C)C[C@@H]1Oc2ncc(C#CCC3CCCC3)cc2C(=O)N([C@@H](C)CO)C[C@H]1C
  16.3 | 9.3
- CO[C@@H]1CN(C)C(=O)c2ccc(NC(C)=O)cc2OC[C@H](C)N(CCC(F)(F)F)C[C@@H]1C
  -0.9 | 2.6
- CCC(=O)N1CC2(C1)CN(C(=O)CN1CCOCC1)[C@@H](CO)c1c2c2ccc(OC)cc2n1C
  13.0 | 9.3
- Cc1cccc(S(=O)(=O)N[C@@H]2CC[C@H](CCn3cc(-c4ccccn4)nn3)O[C@@H]2CO)c1
  -10.5 | -3.7
- C#CCNC(=O)C1=C[C@@H](c2coc3ccccc3c2=O)C[C@@H](OCCCCO)O1
  12.4 | 17.6
- COC(=O)C[C@H]1CC[C@H](NC(=O)Nc2ccc(C(F)(F)F)cc2)[C@@H](CO)O1
  -1.1 | -3.6
- Cc1noc(C)c1NC(=O)N[C@H]1CC[C@H](CCNC(=O)C2CCCC2)O[C@@H]1CO
  -3.7 | 2.8
- Cc1ccc(-c2ccccc2[C@H]2[C@@H](C#N)N(c3ncc(-c4ccccc4)s3)[C@H]2CO)cc1
  -5.9 | -8.8

# Individual results from the results shown.
# COc1cccc(NC(=O)C[C@H]2CC[C@@H]3[C@H](COc4ccc(NC(=O)c5ccccc5F)cc4C(=O)N3C)O2)c1 – Vaccinia inh: -33.9
# C[C@H]1CN([C@@H](C)CO)C(=O)c2cc(-c3ccccc3)cnc2O[C@@H]1CN(C)C(=O)Nc1ccc2c(c1)OCO2 – Vaccinia inh Venus: -11.7

# (cont.)
# Screens in order: Vaccinia inh | Vaccinia inh Venus
- CCc1nc(N2[C@@H](C#N)[C@@H](c3ccccc3-c3ccccc3C)[C@@H]2CO)sc1C
  -2.0 | -1.1
- CCCC#Cc1ccc([C@@H]2[C@@H](CO)N3CCCCN(S(C)(=O)=O)C[C@H]23)cc1
  -14.0 | -9.1
- C[C@H](CO)N1C[C@H](C)[C@H](CN(C)Cc2cncnc2)Oc2ncc(-c3ccc(F)cc3)cc2C1=O
  10.8 | -0.1
- CCCN1[C@H](C(=O)N[C@@H](C)c2ccccc2)[C@@H](CO)[C@@H]2Cn3c(ccc(-c4ccc(F)cc4)c3=O)[C@@H]21
  ? | .
- Cc1noc(C)c1S(=O)(=O)N(C)C[C@@H]1OCCCC[C@@H](C)Oc2ccc(NS(=O)(=O)c3ccc(Cl)cc3)cc2C(=O)N([C@H](C)CO)C[C@@H]1C
  9.3 | -2.6
- C[C@H](CO)N1C[C@H](C)[C@@H](CN(C)C(=O)c2ccc3c(c2)OCO3)Oc2cc(C#Cc3ccccc3F)ccc2S1(=O)=O
  ? | .
- COc1ccc(S(=O)(=O)N2CCC3(CC2)CN(Cc2ccncc2)[C@@H](CO)c2[nH]c4cc(OC)ccc4c23)cc1
  8.1 | -2.7
- C[C@H]1CN([C@@H](C)CO)C(=O)Cc2cc(NC(=O)Nc3cccc4ccccc34)ccc2O[C@@H]1CN(C)Cc1ccc2c(c1)OCO2
  -17.3 | -12.0
- N#Cc1ccc(-c2ccc([C@@H]3[C@H]4CN(C(=O)C5CCC5)CC(=O)N4[C@H]3CO)cc2)cc1
  -32.5 | -25.8
- CO[C@@H]1CN(C)C(=O)c2ccc(NC(=O)C3CCOCC3)cc2OC[C@H](C)NC[C@H]1C
  2.1 | 4.0
- Cc1noc(C)c1S(=O)(=O)N(C)C[C@H]1OCCCC[C@@H](C)Oc2ccc(NS(=O)(=O)c3cccs3)cc2C(=O)N([C@@H](C)CO)C[C@H]1C
  ? | .
- CN1C(=O)c2cc(NC(=O)c3ccc(F)c(F)c3)ccc2OC[C@@H]2O[C@H](CC(=O)N3CCCCC3)CC[C@H]21
  -10.4 | 0.2
- Cc1ccc(-c2ccc([C@@H]3[C@H]4CN(C(=O)c5ccncc5)CC(=O)N4[C@H]3CO)cc2)cc1
  -0.1 | 0.8
- CCc1cnc(N2[C@H](C#N)[C@H](c3ccc(C4=CCCCC4)cc3)[C@H]2CO)s1
  -26.2 | -12.3
- C[C@@H]1CCCCO[C@H](CN(C)C(=O)NC2CCCCC2)[C@H](C)CN([C@@H](C)CO)C(=O)c2cc(NC(=O)CCCN(C)C)ccc2O1
  2.1 | 2.8
- C[C@H](CO)N1C[C@H](C)[C@@H](CN(C)CC2CCOCC2)Oc2ncc(C#CCC3CCCC3)cc2C1=O
  -32.0 | -24.6
- C[C@@H]1CCCCO[C@H](CN(C)S(=O)(=O)c2cccs2)[C@H](C)CN([C@@H](C)CO)C(=O)c2cc(NC(=O)Nc3ccccc3)ccc2O1
  -4.5 | 9.7
- C[C@@H]1CN([C@@H](C)CO)C(=O)c2cc(NC(=O)Nc3ccccc3)ccc2O[C@@H](C)CCCCO[C@@H]1CN(C)Cc1ccc(C(=O)O)cc1
  24.1 | 7.5
